CBX7 inh – inhibitors of human CBX7 binding to H3K27me3 peptide; 66,000 compounds, 1.1% hits; normalised signal (fraction of DMSO) (concentration not given with the values); AlphaScreen His6-CBX7 / biotin-H3K27me3 peptide binding; hits give low values; O95931; in the data active = normalised signal below about 0.5;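 note: 100 nL library stock added to about 20 µL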
Target sequence (O95931 whole entry, looked up): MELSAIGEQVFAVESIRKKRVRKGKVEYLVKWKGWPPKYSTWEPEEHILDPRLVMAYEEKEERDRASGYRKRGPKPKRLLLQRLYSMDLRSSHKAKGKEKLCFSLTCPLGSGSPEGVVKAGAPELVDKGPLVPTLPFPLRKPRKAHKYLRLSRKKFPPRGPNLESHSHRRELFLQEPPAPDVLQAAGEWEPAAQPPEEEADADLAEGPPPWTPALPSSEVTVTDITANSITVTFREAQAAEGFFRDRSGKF
CBX7 inh z-score – also measured in CBX7 inh; calls as there; z-score; measured here: z-score of CBX7 signal; some inactives read as strong as hits; reference of the scale not given here;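 same signal on another scale; lower means less binding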
Numbers without * were called inactive; & = joins results of further samples. These rows are one share of the data; the hit share may differ from the screen's.

entry	Molecule	CBX7 inh	CBX7 inh z-score
1	CCOc1ccc(C(=O)Nc2ccc(Cl)c(NC(=O)c3ccccc3)c2)cc1Br	1.2	1.5
2	Cc1nc2ccc(S(=O)(=O)NC(CC(C)C)C(=O)N3CCC(C)CC3)cc2s1 (stereo not given)	0.999	-0.0338
3	O=C(NCc1ccc(F)cc1)c1ccc2c(=O)n3c(nc2c1)CCCCC3	1.06	0.0734
4	CCCOc1ccc(C(=O)Nc2ccc(Cl)c(-c3nc4ncccc4o3)c2)cc1	1.05	1.09
5	CC(C)(C)c1ccc2c(c1)N(CC(=O)N1CCN(c3cccc(C(F)(F)F)c3)CC1)C(=O)CO2	0.947	-1.6
6	COc1ccccc1Nc1ncc(C(=O)NCc2ccc3c(c2)OCO3)c2ccccc12	1.02	0.378
7	Clc1ccc(COc2cccc3cccnc23)cc1	1.14	3.08
8	Cc1ccc2c(c1)NC(=O)C(CC(=O)Nc1c(F)cc(F)cc1Br)O2 (stereo not given)	1.01	0.593
9	C=C(C)c1cccc(C(C)(C)NC(=O)N2CCN(c3cccc(C(F)(F)F)c3)CC2)c1	1.15	3
10	Cc1ccc(S(=O)(=O)C2(C(=O)N3CC(C)CC(C)C3)CC2)cc1 (stereo not given)	1.23	2.98
11	O=C(NCc1cccnc1)C1c2ccccc2C(=O)N1C1CCCC1 (stereo not given)	0.942	-1.66
12	Cc1cc(C)c(/C=C/c2cc(C(F)(F)F)[nH]c(=O)n2)cc1C	0.89	-1.3
13	O=C(Nc1ccc2oc(-c3cccnc3)nc2c1)c1ccc(-c2ccc(OC(F)(F)F)cc2)o1	1.03	1.8
14	CCn1cc(C(=O)N(C)c2cccc(C(F)(F)F)c2)c2cc(OC)c(OC)cc2c1=O	1.04	0.183
15	COc1ccc2nc(N3CCC(C(=O)N4CCOCC4)CC3)sc2c1	0.935	-0.705
16	CCCCN(C)C(=O)Cn1nc(Cc2ccncc2)c2ccccc2c1=O	1.11	2.07
17	COCCNC(=O)c1cnn2c(C)c(Cc3cccc(Br)c3)c(C)nc12	1	0.159
18	O=C(NCCCN1CCOCC1)c1cccc(NC2=NC3CS(=O)(=O)CC3S2)c1 (stereo not given)	1	0.0399
19	Cc1ccc(-n2nnnc2SCC(=O)Nc2ccccc2-c2ccccc2)cc1C	0.786	-2.1
20	c1cn2c(Nc3ccc4c(c3)OCCO4)c(-c3ccc(N4CCOCC4)cc3)nc2cn1	1.08	0.776
21	CC1=Nc2cc(C(=O)NCc3ccc(Cl)cc3)ccc2Sc2c(C)ccc(C)c21	0.967	-0.513
22	CCOc1ccc2nc(N3CCC(C(=O)NCCc4cc(OC)ccc4OC)CC3)sc2c1	0.991	-0.0122
23	CC1CC(C)CN(S(=O)(=O)c2ccc(C(=O)Nc3ccc(-c4nc5ccccc5o4)cc3)cc2)C1 (stereo not given)	0.904	-0.733
24	CC(=O)NCc1cc(-c2nn(C)c(=O)c3ccccc23)ccc1C	1	0.0976
25	O=C(Nc1cccc2ncccc12)c1ccccc1F	0.92	-0.907
26	CC(C)COc1ccc2c(c1)c1c(n2C)C(O)CCC1 (stereo not given)	0.875	-1.98
27	O=C(CCSc1nccn1Cc1ccccc1)N1CCOCC1	0.966	-0.893
28	Cn1nc(CC(=O)Nc2ccccc2C(F)(F)F)c2ccccc2c1=O	1.07	0.68
29	O=C(Cc1ccc(Cl)cc1)Nc1ccc2nn(-c3ccccc3)nc2c1	1.01	0.262
30	Cc1noc(C)c1S(=O)(=O)N(CC(=O)Nc1ccc2c(c1)OCCO2)c1ccc(C(C)C)cc1	1.38	1.52

Entries of single compounds, quoted from the list. Screens in order: CBX7 inh	CBX7 inh z-score
Shown for `COc1ccccc1Nc1ncc(C(=O)NCc2ccc3c(c2)OCO3)c2ccccc12` = 1.02	0.378
Shown for `Cn1nc(CC(=O)Nc2ccccc2C(F)(F)F)c2ccccc2c1=O` = 1.07	0.68
Shown for `Cc1ccc(S(=O)(=O)C2(C(=O)N3CC(C)CC(C)C3)CC2)cc1` (stereo not given) = 1.23	2.98
Shown for `O=C(Cc1ccc(Cl)cc1)Nc1ccc2nn(-c3ccccc3)nc2c1` = 1.01	0.262
Shown for `C=C(C)c1cccc(C(C)(C)NC(=O)N2CCN(c3cccc(C(F)(F)F)c3)CC2)c1` = 1.15	3

Other structures:
entry	Molecule	CBX7 inh	CBX7 inh z-score
31	COC(=O)c1c(NC(=O)c2ccc(C)cc2)sc2c1CCCC2	1.37	7.32
32	Cc1ccc(-c2nn3c(C)nnc3s2)cc1NC(=O)C(C)C	1.01	0.237
33	COc1cc(OC)c(NC(=O)c2cc(C)nn2-c2ccccc2)cc1Cl	1.01	0.0438
34	CCN(CC)S(=O)(=O)c1ccc2c(c1)N(CC(=O)N1CCC(C)CC1)C(=O)CO2	1.12	3.23
35	O=C(Nc1c(-c2ccccc2)nc2ccccn12)c1ccc(Cl)cc1	0.998	-0.0459
36	O=C(CN1C(=O)COc2ccccc21)NCCCN1CCc2ccccc2C1	1.01	0.468
37	CC(=O)NCC(=O)N(CCc1c[nH]c2ccccc12)C1(C(=O)Nc2c(C)cccc2C)CCCCC1	0.96	-0.729
38	Cc1ccc2[nH]c(C)c(CN3CCCCC3C)c(=O)c2c1 (stereo not given)	1.06	1.06
39	CCS(=O)(=O)NC(C)C(c1cccs1)N1CCN(c2ccc(OC)cc2)CC1 (stereo not given)	0.826	-2.23
40	Cc1cccc(NC(=O)c2c(O)c3ccccc3[nH]c2=O)n1	1.21	3.28
41	O=C(CSc1ccc2nnc(-c3ccccc3)n2n1)N1CCOCC1	0.997	-0.0913
42	CCCn1c(C2CC(=O)N(c3ccc(C)c(Cl)c3)C2)nc2ccccc21 (stereo not given)	1.15	0.654
43	CC(=O)Nc1ccc(S(=O)(=O)N(CCCN2CCOCC2)Cc2cccs2)cc1	0.832	-1.83
44	CC(=O)Nc1ccccc1-c1nc2ccccc2n(C)c1=O	1.23	3.65
45	CC1(C)CC(=O)c2cc(C(=O)NCCc3ccccc3)c(=O)n(-c3ccc(Cl)cc3)c2C1	1.14	1.61
46	COc1ccc(CCNC(=O)CSc2nc3ccccc3nc2Cc2ccc(F)cc2)cc1OC	0.48*	-8.99*
47	CC1(C)NC(=O)N(CC(O)CN2C(=O)NC(C)(C)C2=O)C1=O	1.08	2.77
48	O=C(O)c1cc(-c2ccc3c(c2)OCCO3)n[nH]1	1.07	0.674
49	COc1cccc(CN2CCC(N3CCCCC3)CC2)c1	0.978	-0.717
50	Cc1ccc(-c2noc(CCC(=O)NCCN3CCc4ccccc4C3)n2)cc1	1.03	1.07
51	COc1ccc(C(=O)c2oc3ccccc3c2NC(=O)c2ccccc2F)cc1	1.05	0.177
52	COc1ccc(CCNC(=O)C(=O)Nc2ccc(Br)cc2)cc1	1.03	0.747
53	COc1ccc(NC(=O)c2c(NCc3cccs3)sc3c2CCCCC3)cc1	0.736	-13.7
54	COc1ccc(-c2cc(C(=O)Nc3nc4ccc(S(C)(=O)=O)cc4s3)c3ccccc3n2)cc1OC	1.05	2.13
55	N#Cc1c2n(c3c(=O)n(CC(=O)c4ccc(Br)cc4)cnc13)CCCC2	0.924	-0.822
56	CC1CCCN(CCCNC(=O)Cn2nc(-c3ccc(Cl)cc3)ccc2=O)C1 (stereo not given)	1.05	2.12
57	COc1ccc(NC(=O)COc2nsnc2N2CCOCC2)c(OC)c1	1.44	4.2
58	COc1ccc(NC(=O)[C@H](Cc2ccccc2)N2Cc3ccccc3C2=O)cc1OC	0.417*	-1.63*
59	COc1ccc(CN2C(=O)c3cccnc3C2Nc2ccc(Br)c(C)c2)cc1 (stereo not given)	0.149*	-10.9*
60	CCc1ccc(-c2csc(NC(=O)c3cc4ccccc4cc3OC)n2)cc1	1.05	1.53
61	Cc1c(CCNC(=O)c2ccccc2)c2ccccc2n1Cc1ccccc1	1.16	1.86
62	O=C(CSc1nc(-c2ccc3c(c2)OCO3)cn1-c1ccccc1)Nc1cccc(Cl)c1	0.735	-2.67
63	CCSc1nnc(NC(=O)CSc2nnc(CNC(=O)c3cccs3)o2)s1	0.906	-1.54
64	CCOc1ccc(NC(=O)c2ccccc2OC)cc1	1.04	1.81
65	COc1cccc(CNC(=O)Nc2cccs2)c1OC	0.985	-0.697
66	CCCCN(C)CCNS(=O)(=O)c1ccc2c(c1)CCN2C(C)=O	1.27	1.07
67	CC(=O)N1CCc2cc(S(=O)(=O)NCCC(C)C)ccc21	1.03	1.01
68	Cc1ccc(CNC(=O)Cn2c3c(c(-c4ccccc4)cc2=O)CCCC3)cc1	1.05	0.668
69	Cc1ccc(NC(=O)CN2C(=O)CC(c3ccccc3)Sc3ccccc32)cc1Cl (stereo not given)	0.976	-0.394
70	Cc1ccc(-n2cc(C(=O)Nc3cccc(Cl)c3)c3ccccc3c2=O)cc1C	0.971	-0.98
71	Cc1ccc2c(c1)-c1c(cnn1CC(=O)NCCCN1CCc3ccccc3C1)CO2	0.981	-0.336
72	Cc1oc(-c2ccccc2F)nc1CN1CCC(C(=O)NCCC(C)C)CC1	1.2	2.38
73	Cc1ccc(CCNC(=O)CN2C(=O)CSc3ccc(S(=O)(=O)N4CCCCC4)cc32)cc1	0.966	-1.2
74	CCCCOc1ccccc1NC(=O)CC1Nc2cc(C)c(C)cc2NC1=O (stereo not given)	0.871	-1.28
75	Cc1ccc(-c2nc(CS(=O)(=O)CC(=O)NCCN(C)C)c(C)o2)cc1	1.16	0.337
76	COc1ccc(C2C(Oc3ccc(Cl)cc3)C(=O)N2c2ccc(C)c(C)c2)cc1OC (stereo not given)	1.01	0.217
77	CC1CCCN(C(C(=O)Nc2ccc3c(c2)OCCO3)c2ccccc2)C1 (stereo not given)	0.614	-8.23
78	CCOc1ccc(CCNC(=O)Cn2nc(Cc3cccnc3)c3ccccc3c2=O)cc1	1.1	0.892
79	COc1ccc(CCNC(=O)C2(C)CCC(=O)N2Cc2ccccc2)cc1OC (stereo not given)	1.06	1.03
80	Cc1ccc(Nc2c(-c3cccc(Cl)c3)nc3ccc(C)cn23)cc1	0.977	-0.875
81	O=C(Nc1cccc(O)c1)c1cnn2c1NC(c1cccs1)CC2C(F)(F)F (stereo not given)	0.994	-0.0775
82	C1=C(c2ccccc2)CCN(c2nc3cccnc3s2)C1	1.12	3.05
83	O=C(NCCC1=CCCCC1)c1csc2c1CCCCC2	0.956	-1.11
84	CCn1cnc2cc(NCc3cccs3)ccc21	0.956	-0.355
85	CCCN(CCC)C(=O)C1CCN(c2cc(C)nc3c(-c4ccc(Cl)cc4)c(C)nn23)CC1	1.15	0.382
86	Cc1nc2ncnn2c(C)c1CCC(=O)Nc1ccc(Br)cn1	1.11	2.17
87	CC(=O)Nc1ccc(CN2CCN(c3ccc4ccccc4n3)CC2)cc1	0.712	-7.51
88	CNC(=O)c1ccc(Nc2nnc(C)c3ccccc23)cc1	1.01	0.246
89	CCCCN(CC)S(=O)(=O)c1ccc2[nH]c(=O)cc(C(=O)NCCCN3CCC(C)CC3)c2c1	0.956	-1.48
90	Brc1ccc(-c2csc(N3CCc4ccccc4C3)n2)cc1	1.07&1.12	1.81&2.08

(more compounds)
entry	Molecule	CBX7 inh	CBX7 inh z-score
91	CC(C)C(NS(=O)(=O)c1cccs1)C(=O)Nc1cccc(C(F)(F)F)c1 (stereo not given)	1.12	1.58
92	COc1ccc(-c2cc3cc(OC)c(OC)cc3c(C)n2)cc1	1.08	2.26
93	COc1ccc(-c2noc(N(C)CC(=O)Nc3ccccc3OC)n2)cc1	1.04	1.24
94	CCOC(=O)c1cnc2ccc(C)cc2c1Nc1ccc(N2CCOCC2)cc1	0.893	-3.49
95	O=C(O)c1ccc2[nH]c(=O)c(Cc3ccc(Br)cc3)nc2c1	0.998	-0.0647
96	CCOC(=O)c1cccc(NC(=O)c2c(-c3c(F)cccc3Cl)noc2C)c1	0.922	-0.891
97	CC(NC(=O)Cc1ccc(F)cc1)C(c1cccs1)N1CCN(c2ccccc2)CC1 (stereo not given)	0.862	-1.46
98	CCC(=O)N1c2ccc(S(=O)(=O)Nc3ccc(CC)cc3)cc2CC1C (stereo not given)	0.822	-0.717
99	Cc1ccc(C)c(C(=O)CN2C3=NCCN3c3ccccc32)c1	1.07	1.94
100	Clc1ccc(-n2ncc3c(NCc4cccnc4)ncnc32)cc1	0.85	-2.34
101	CCC1Oc2ccc(Cl)cc2N(CC(=O)NCc2ccc(F)cc2)C1=O (stereo not given)	0.759	-4.16
102	Cc1onc(-c2ccccc2Cl)c1C(=O)NCCn1c(C)cc2ccccc21	0.903	-1.73
103	CCc1ccc2oc(-c3cccc(NC(=O)COc4ccccc4C)c3)nc2c1	1.04	0.0909
104	Cc1ccccc1C(=O)Nc1cccc(-c2cn3ccccc3n2)c1	0.885	-1.36
105	Cc1ccc(S(=O)(=O)Nc2ccccc2C(=O)Nc2nc(-c3ccccc3)cs2)cc1	1.12	1.3
106	O=c1oc2ccccc2cc1-c1csc(Nc2ccccc2)n1	1.09	1.46
107	Cc1ccc(NC(=O)NCC2CCN(C(C)c3ccccc3)C2)cc1C (stereo not given)	1.01	0.314
108	CCN1C(=O)c2ccccc2S(=O)(=O)c2ccc(C(=O)NCC(OC)OC)cc21	1.02	0.486
109	CCOc1ccc(NC(=O)c2sc3ncn(CC(=O)Nc4ccccc4OC)c(=O)c3c2C)cc1	0.977	-0.219
110	CCc1ccc2nc(N3CCC(C(=O)NCCCN4CCCCC4C)CC3)sc2c1 (stereo not given)	1.41	0.824

Screens as filed in PubChem BioAssay.
